HIV TAR-Tat: HIV-1 TAR-Tat binding disruption; 100,000 compounds, 0.6% hits; HIV-1 TAR RNA, Tat peptide displacement FRET; hits give high values; z-score (concentration not given with the values);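 also: score is relative to mean and SD of negative controls; some compounds called inactive have numbers as strong as hits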
CDC25B CDK2 inh: human CDC25B-CDK2/CyclinA binding inhibition; P30305+P24941; HTRF CDC25B-CDK2/CyclinA binding, anti-His/anti-Flag; hits give high values; z-score (test concentration not listed); 94,000 compounds, 0.72% hits;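 also: score is relative to mean and SD of negative controls; strong numbers were not always called active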
An asterisk follows results filed as active; / = no result given.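 The calls were made as follows: active = z-score from 3 up in half or more of its runs; inactive = the rest.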

SMILES	HIV TAR-Tat	CDC25B CDK2 inh
C=CCNC(=O)C1CC(=O)N(c2ccc(OCC(=O)Nc3ccc(F)cc3)cc2)C1 (centres undefined)	3	-0.03
O=C1CN(S(=O)(=O)CCOc2ccccc2)CC(=O)N1CCc1ccccc1	/	-1
Cc1nc([N+](=O)[O-])cn1Cc1ccccc1	2.2	-1.1
O=c1[nH]c2cc(S(=O)(=O)CCO)ccc2o1	/	1.2
Cc1ccc(S(=O)(=O)c2nc(S(C)(=O)=O)sc2NC2CCCCC2)cc1	0.74	-0.31
COc1ccc(-c2nn3c(-c4ccncc4)nnc3s2)cc1OC	2.1	-1.3
Cc1cc2cc(CCNC(=O)CCC3CCCC3)c(=O)[nH]c2cc1C	/	-2.6
CCN1CCN(C(=O)CSc2ncnc3c2sc2cccc(F)c23)CC1	-0.6	/
CCCCNC(=O)c1sc2ncccc2c1-n1cccc1	0.73	/
O=C1/C(=N\O)CC(OC(=O)c2ccccc2)C/C1=N/O (centres undefined)	/	-0.9

Structural class: those above containing a halogen.
SMILES	HIV TAR-Tat	CDC25B CDK2 inh
C=CCNC(=O)C1CC(=O)N(c2ccc(OCC(=O)Nc3ccc(F)cc3)cc2)C1 (centres undefined)	3	-0.03
CCN1CCN(C(=O)CSc2ncnc3c2sc2cccc(F)c23)CC1	-0.6	/

Of the compounds above, two have fluorine.
SMILES	HIV TAR-Tat	CDC25B CDK2 inh
C=CCNC(=O)C1CC(=O)N(c2ccc(OCC(=O)Nc3ccc(F)cc3)cc2)C1 (centres undefined)	3	-0.03
CCN1CCN(C(=O)CSc2ncnc3c2sc2cccc(F)c23)CC1	-0.6	/

Continued:
SMILES	HIV TAR-Tat	CDC25B CDK2 inh
CCN(C(=O)NCc1noc2ccccc12)c1ccccc1	-2	/
N#Cc1nc(/C=C/c2cccs2)oc1NC1CC1	1.1	-1.9
O=c1[nH]c(CN2CCOCC2)nc2sc3c(c12)CCCC3	0.43	-0.39
OCCN1CCN(C2CCN(Cc3cccc(Oc4ccccc4)c3)CC2)CC1	3.7	-0.09
Nc1cccc(-c2nc3cc(S(=O)(=O)c4ccc5oc(-c6cccc(N)c6)nc5c4)ccc3o2)c1	/	-0.18
CCSCCOC(=O)C1=C(C)NC2=C(C(=O)CC(C)(C)C2)C1c1ccccn1 (centres undefined)	/	1.2
Cc1cc(C)nc(NS(=O)(=O)c2ccc(NCc3cc(Br)ccc3O)cc2)n1	-0.22	-0.69
CC(=O)n1nc(C)c(Sc2ccc(C(F)(F)F)cn2)c1C	/	-1.7
O=C(CSCCS(=O)(=O)c1ccc(Cl)cc1)Nc1ccccc1	/	-1.4
Cc1ccc(CNC(=O)CSc2ncnc3c2sc2cccc(F)c23)o1	-1.2	/
CC1(C)CC(=O)c2sc(NC(=O)CS(=O)(=O)c3ccc(Cl)cc3)nc2C1	0.62	/
Cc1ccc(-c2cnc(C3CC3)o2)cc1S(=O)(=O)Nc1cccc(-c2ccno2)c1	0.78	/
O=C(Nc1ccccc1SCc1cc(=O)n2c(-c3ccccc3)csc2n1)c1ccco1	8.4*	/
N/C(COc1ccc(Cl)cc1Cl)=N\O	/	0.39
CCCCN1C(=O)C(O)(c2c(C)[nH]c3ccccc23)c2cc(Br)ccc21 (centres undefined)	-0.39	0.43
CCOC(=O)N1CCC(NC(=O)c2cc3c(s2)CS(=O)(=O)C3)CC1	0.45	0.15
CCN1C(=O)c2cc(C(=O)NC(C)C)nn2CC1(C)C(=O)NC1CCCC1 (centres undefined)	0.37	/
Cc1ccc(F)cc1S(=O)(=O)N1CCC(c2nc3ccccc3s2)CC1	-1.6	-0.32
CC(C)c1ccc(NC(=O)CCS(=O)(=O)c2ccc3c(c2)CC(C)N3C(=O)C2CC2)cc1 (centres undefined)	-0.51	/
O=C(NC1CCCCC1)c1nc2ccccc2c(=O)[nH]1	0.79	1.9
CCn1cnc2cc(NCc3nc4ccccc4n3C)ccc21	-0.54	2.5
Cn1c(SCC(=O)Nc2nc3ccccc3s2)nc2c([nH]c3ccccc32)c1=O	/	0.78
CCCCSc1nc2c(c(=O)[nH]1)C(c1cccs1)C(C(=O)OC(C)C)=C(C)N2 (centres undefined)	-1	-0.72
CC(=O)c1ccc(SC(C)C)c([N+](=O)[O-])c1	/	-1.2
CCOC(=O)Oc1c(OC)cc(C(=O)O[C@@H]2C[C@@H]3CN4CCc5c([nH]c6cc(OC)ccc56)[C@H]4C[C@@H]3[C@H](C(=O)OC)[C@H]2OC)cc1OC	-1.7	/
COC(=O)c1cnn2c1NCN(Cc1ccc3c(c1)OCO3)C2	2.9	-1.5
CCCN1C(C(=O)c2ccccc2)=C(OC(=O)c2ccco2)c2ccccc2S1(=O)=O	1.6	-1.6
O=C1CC(=O)Nc2cc(S(=O)(=O)Nc3ccc(Oc4ccc(Cl)cc4)cc3)ccc2N1	1.6	/
COC(=O)c1c(C)oc2ccc(OC(=O)c3ccc(Cl)cc3)cc12	0.48	-0.11
CCn1c(SCc2ccccc2)nnc1-c1ccc2c(c1)OCCCO2	0.84	/
Cc1oc(-c2ccccc2F)nc1CSc1nnc(C)n2c1cc1sccc12	0.75	/
O=C(c1cc(-c2ccc(Br)cc2)n[nH]1)N1CCN(Cc2ccc3c(c2)OCO3)CC1	0.11	/
CC(C)(C)N=C1NN=C(c2ccc(Cl)cc2)CS1	/	-2.4
CS/C(=C\C(=O)c1cccs1)NCc1ccco1	/	-2.3
Cn1c(=O)oc2cc(S(=O)(=O)CCC(=O)N3CCC(Cc4ccccc4)CC3)ccc21	1.8	/
CC1=NOC(=O)C1C(c1cccc(Br)c1)c1c(C)[nH]n(-c2ccccc2)c1=O (centres undefined)	2.7	-2.1
Cc1cc(-c2onc(C)c2C(N)=O)no1	/	-1.7
Cn1c(SCC(N)=O)nc2c(oc3ccccc32)c1=O	/	-1.4
Clc1ccc(CN2CCc3nc(Nc4ccc5c(c4)OCO5)ncc3C2)cc1	2.2	/
CCSc1nnc(NC(=O)c2cc(=O)c3cc(C)ccc3o2)s1	1.5	-1.6

Ordered by SMILES length (ascending): some entries from above
SMILES	HIV TAR-Tat	CDC25B CDK2 inh
N#Cc1nc(/C=C/c2cccs2)oc1NC1CC1	1.1	-1.9
Cc1nc([N+](=O)[O-])cn1Cc1ccccc1	2.2	-1.1
CC(C)(C)N=C1NN=C(c2ccc(Cl)cc2)CS1	/	-2.4

New compounds follow:
SMILES	HIV TAR-Tat	CDC25B CDK2 inh
O=C(Cn1ncc2c(=O)oc3ccccc3c21)NCCc1ccsc1	2.2	-1.6
Cc1cccc2[nH]c(-c3ccccc3)nc12	2.6	-1.1
Cn1ncc2c(=O)n(CC(=O)c3ccccc3)cnc21	-0.08	-1.6
Cc1cc2c(=O)n(-c3ccccc3)c(=S)[nH]c2s1	/	7.2
O=C(N/N=C/c1ccc(S(=O)(=O)c2ccc(Cl)cc2)cc1)c1cscn1	/	-0.88
CCOC(=O)c1nc2cc(C)ccc2oc1=O	-3.7	-0.18
CC(C)c1nnc(NC(=O)CSc2nnc3c(n2)[nH]c2ccccc23)s1	-0.62	-2.6
c1cc(CNc2ccc3c(c2)OCO3)ccn1	0.91	0.08
CCOC(=O)c1nc(N2CCCc3ccccc32)c2c(C)noc2n1	1.5	/
CC1CC(C)CN(C(=O)CN2C(=O)COc3ccc(S(=O)(=O)N4CCCCC4)cc32)C1 (centres undefined)	-1	/
Cc1ncc(-c2ccc(S(=O)(=O)N3CCN(C4CCCCC4)CC3)cc2)o1	0.98	/
Clc1ccc(Cc2nc(-c3ccc(Cl)cc3)no2)cc1	/	-0.89
O=C(Nc1cc(F)c2nc(N3CCCCC3)ccc2c1)C1CCCC1	-2.1	/
Clc1ccc2c(c1)C1CC(c3ccccc3)=NN1C(c1ccncc1)O2 (centres undefined)	0.9	-1.6
COc1cc2c(cc1OC)C(C)N(C(=O)Nc1cn(C)c(=O)c3ccccc13)CC2 (centres undefined)	-0.85	/
O=C(Nc1ccccc1)C1CCN(c2ncnc3c2nc2n3CCCCC2)CC1	-0.97	/
CCn1cc2c(c1-c1cccc(Br)c1)c(=O)n(C)c(=O)n2C	1.4	-0.7
CCCCN(CCCC)S(=O)(=O)c1cc2c(cc1C)NC(=O)CO2	1.8	/
O=C(Cn1cnc(S(=O)(=O)N2CCOCC2)c1)Nc1ccc2c(c1)OCCO2	0.17	/
Cc1ccc(NS(=O)(=O)c2cc(Br)cnc2N)c(Cl)c1	1.9	-1.5

Looked up by compound from the list above:
SMILES	HIV TAR-Tat	CDC25B CDK2 inh
COc1cc2c(cc1OC)C(C)N(C(=O)Nc1cn(C)c(=O)c3ccccc13)CC2 (centres undefined)	-0.85	/
CCn1cc2c(c1-c1cccc(Br)c1)c(=O)n(C)c(=O)n2C	1.4	-0.7
Clc1ccc(Cc2nc(-c3ccc(Cl)cc3)no2)cc1	/	-0.89
O=C(Nc1cc(F)c2nc(N3CCCCC3)ccc2c1)C1CCCC1	-2.1	/

Next entries:
SMILES	HIV TAR-Tat	CDC25B CDK2 inh
Cc1c(NC(=O)CN(c2ccccc2Br)S(C)(=O)=O)c(=O)n(-c2ccccc2)n1C	0.75	0.36
CCOc1ccc(-c2cccc(NS(=O)(=O)c3cccs3)c2)nn1	0.98	/
CC1CCN(C(=O)C2=CC(c3cccs3)=NS(=O)(=O)N2C)CC1	1.7	-1.1
COC(=O)Cn1c(=O)n(Cc2nc(-c3ccccc3)no2)c(=O)c2ccccc21	-0.09	/
N=Cc1cc(-c2ccccc2)oc1S	-7.5	-1.3
COc1ccc(C2C3=C(CC(C)(C)CC3=O)OC3=C2C(=O)CC(C)(C)C3)cc1Br	/	-0.15
CCCN(CCC)c1c(-c2cc(C)c(C)cc2C)c(=O)c1=O	-0.56	/
CC1(C)C(=O)Nc2ccc(S(=O)(=O)NC3CCCc4ccccc43)cc21 (centres undefined)	-0.97	/
O=C(NC1=C(C(=O)c2ccccc2)N(Cc2ccccc2)S(=O)(=O)c2ccccc21)c1ccccc1	-0.65	-0.12
CCc1cc(C)cc(OCC(O)Cn2cnc3ccccc32)c1 (centres undefined)	-2.3	-1.7
NC(=O)c1oc2ccccc2c1NC(=O)c1ccc([N+](=O)[O-])o1	0.53	-0.47
COc1ccc2cc(C3=NN(C(C)=O)C(c4cc(C)ccc4OC(C)=O)O3)ccc2c1 (centres undefined)	1.6	/
C1CCN(c2nnnc3c2sc2nc(N4CCOCC4)c4c(c23)CCCC4)CC1	1.9	-0.51
Cc1nc(N2CCOCC2)c2c(C(=O)Nc3cc(F)ccc3F)c(C)oc2n1	0.83	/
CCOC(=O)N1CCN(S(=O)(=O)c2ccc3oc(=O)c4ncn(C)c4c3c2)CC1	-0.43	/
COc1ccc(NC(=O)CN2N=NC3C(=O)N(c4ccc(F)c(F)c4)C(=O)C32)cc1Cl (centres undefined)	0.38	/
CC(C)(C)c1nnc(-c2cccc(NS(=O)(=O)c3ccc(-c4ccon4)s3)c2)o1	/	-1
O=C1CCCCC(=O)c2ccccc2N1	/	-2.1
CC1=C(C(=O)OC(C)C)C(c2cccs2)C(C(=O)OC(C)C)=C(C)N1	/	0.62
COC(=O)Cn1cnc2c(nnn2Cc2ccc(Cl)cc2)c1=O	0.29	-0.79
Cc1ccc(-n2nnc(-c3nc(-c4cccs4)no3)c2N)cc1C	1.3	/
CCCS(=O)(=O)c1ncc(Cl)c(C(=O)Nc2nnc(C(C)C)s2)n1	2.1	1.5
Cc1oc(-c2ccccc2Cl)nc1CSc1nc2c(c(=O)[nH]1)CCC2	1.7	0.75
O=c1[nH]nc(SCc2nnc(-c3ccc([N+](=O)[O-])cc3)o2)n1C1CCCCC1	/	-0.51
CN1CCN(c2oc(/C=C/c3ccc(F)cc3)nc2C#N)CC1	1.4	-0.98
O=C(N/N=C/C=C/c1ccccc1)C(=O)Nc1ccc(F)cc1	/	-1.6
O=C1c2ccccc2C(=O)N1CC(=O)N1c2ccccc2Sc2ccccc21	/	-0.79
O=C(Cn1c(=O)oc2ccccc21)N1CCC(c2ccccc2)C1 (centres undefined)	-0.23	/
CCc1nn(CCCC(=O)NCCOC)c(=O)c2cc3oc(C)cc3n12	-0.67	-1.2
CCOc1ccc(S(=O)(=O)N(C)Cc2cc3ccccc3o2)cc1	0.22	0.64
COc1ccc(NC(=O)NCCc2csc3c2CCC(C)C3)c(OC)c1 (centres undefined)	0.8	/
COc1ccc(Br)c(-c2nc(-c3ccccc3)no2)c1	/	-0.33
Cn1c(=O)c2c(SCC(=O)Nc3cccc(F)c3)nc(-c3ccco3)nc2n(C)c1=O	/	-2
CN1C(=O)C(C)(C)c2cc(S(=O)(=O)N3CCCC(C(=O)NC4CCCC4)C3)ccc21 (centres undefined)	0.33	0.39
Cn1c(=O)c2cn3c(c2n(C)c1=O)C(c1ccc(Br)cc1)Nc1ccccc1-3 (centres undefined)	-0.67	0.49
CCC1(C)Cc2ccccc2C(NC(=O)N2CCCCC2)=C1C#N (centres undefined)	1.8	-1.5
C=CCn1c(=O)c2c(nc3n2CCN3c2ccc(Cl)cc2)n(C)c1=O	1.4	/
CCCCn1cc(S(=O)(=O)c2ccc(F)cc2)c(=O)c2cc(OCC)ccc21	0.28	-0.77
N#Cc1c(F)cccc1NCc1cccnc1	/	-1.9
Cc1cccc(-c2nc(CSc3nncn4c3cc3sccc34)c(C)o2)c1	4.1	/
O=C(CN1C(=O)CCSc2ccccc21)NCCC1=CCCCC1	1.2	-1.6
O=C(Cn1cnc2c(oc3ccccc32)c1=O)Nc1ccc(F)c(Cl)c1	1.3	/
O=C(CSc1nnc2c(n1)[nH]c1ccccc12)Nc1nc2ccccc2s1	0.95	-2.3
Cc1oc2cc(OC(=O)N3CCOCC3)ccc2c(=O)c1-c1ccc(Br)cc1	2	-1.2
CCOC(=O)N1CCC(NC(=O)CCC(=O)N2CC(C)Oc3ccc(Cl)cc32)CC1 (centres undefined)	1.6	-1.8
COc1ccc(NC(=O)CCCc2nc(-c3ccco3)no2)c(OC)c1	1.1	-0.34
O=C(Cn1cnc(S(=O)(=O)N2CCCC2)c1)Nc1ccc(F)cc1	1.2	/
CCOC(=O)c1nc(Nc2ccc(N3CCCC3)cc2)c2ccccc2n1	0.53	-4.2
CCN(c1ccc(OC)cc1)S(=O)(=O)c1ccc(-c2cc(C(F)(F)F)on2)s1	0.82	/
Cc1ccccc1Nc1c(-c2ccc3c(c2)OCC(=O)N3)c(=O)c1=O	1.2	/

Compound activity: PubChem BioAssay, Center for Chemical Genomics, University of Michigan
